Assay outcomes: PubChem, several laboratories
LANA-H2B inh = blocks KSHV LANA binding to histone H2A/H2B. Q9QR71. cell-free LANA-H2A/H2B peptide, fluorescence polarization. inhibition, % (test concentration not listed). 320,000 tested, 0.6% active. AID 2629; in the data active = inhibition mostly above about 10%, no sharp cut-off; inactive = mostly below about 6.7%;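 note: stock transfer was 7.5 nL into about 10 µL; 0% = median of vehicle wells and 100% = median of positive control wells; one replicate is shown; the record names a cut of 25% in any replicate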
UCH37 inh = blocks the human deubiquitinase UCH37. AID 588478. inhibition, % (concentration not given with the values). purified proteasome/UCH37, Ub-AMC cleavage fluorescence. Q9Y5K5. 330,000 tested, 0.33% active;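 active = mean of two replicates above 20%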;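 note: 0% = compound-free wells with enzyme and 100% = wells lacking proteasome; stock transfer was 100 nL into about 20 µL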
Target sequence (Q9Y5K5 whole entry, looked up): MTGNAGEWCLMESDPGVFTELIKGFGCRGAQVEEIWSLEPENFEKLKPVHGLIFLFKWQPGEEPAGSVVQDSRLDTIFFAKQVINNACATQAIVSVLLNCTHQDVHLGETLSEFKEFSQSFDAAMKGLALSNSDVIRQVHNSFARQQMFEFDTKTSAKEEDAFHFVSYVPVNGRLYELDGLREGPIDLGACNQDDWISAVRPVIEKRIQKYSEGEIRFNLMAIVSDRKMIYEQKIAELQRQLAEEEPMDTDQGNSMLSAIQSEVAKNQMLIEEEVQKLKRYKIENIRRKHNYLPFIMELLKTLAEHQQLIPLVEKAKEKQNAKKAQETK
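assay system = human UCH37 enzyme supplied as purified proteasome complex | amount = proteasome at 0.15 nM in the dispensed enzyme solution | schedule = 30 min compound-proteasome preincubation then 25 min substrate reaction, room temperature | measured by = fluorescence, ex 355 nm, em 460 nm | benchmarks = no-proteasome wells (full inhibition) and compound-free wells (no inhibition)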
B2AR ag = agonists of human beta-2 adrenergic receptor inducing internalization | P07550 | 340,000 tested, 0.43% active | response, % (concentration not given with the values) | Am2.2-beta2AR cells, FAP receptor internalization, flow cytometry; reference of the scale not given here;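 active = response above a set limit, near 3 SD of response in nonfluorescent compounds, cut at about 42% in these data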;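 note: stock transfer was 100 nL into about 11 µL; a reference agonist was the positive control; negative values mostly stem from fluorescent compounds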
Target sequence (P07550 whole entry, looked up): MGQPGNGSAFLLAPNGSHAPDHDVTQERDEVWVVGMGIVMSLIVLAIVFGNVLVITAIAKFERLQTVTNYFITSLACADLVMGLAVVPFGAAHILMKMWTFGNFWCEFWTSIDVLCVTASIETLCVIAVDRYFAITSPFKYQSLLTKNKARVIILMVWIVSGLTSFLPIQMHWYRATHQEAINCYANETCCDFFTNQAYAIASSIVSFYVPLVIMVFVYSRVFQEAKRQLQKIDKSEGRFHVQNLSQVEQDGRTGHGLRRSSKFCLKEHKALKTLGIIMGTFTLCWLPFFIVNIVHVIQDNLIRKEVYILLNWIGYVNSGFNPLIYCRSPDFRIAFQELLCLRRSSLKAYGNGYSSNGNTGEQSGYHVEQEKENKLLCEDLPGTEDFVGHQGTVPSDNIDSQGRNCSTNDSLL
Vif TR-FRET = HIV-1 Vif–A3G interaction blockers – biochemical, TR-FRET, GST-Vif 1-94, biotin-A3G peptide, dose response retest, primary screen (AID 1117319); 260,000 tested, 0.57% active; one-dose inhibition, %; IC50 in µM for titrated hits; TR-FRET GST-Vif / biotin-A3G peptide binding; higher % means a stronger effect; test concentration not given here; strong numbers were not always called active;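 active = above the screen mean plus three standard deviations and confirmed in dose response; inconclusive = results disagree or hit not tested in dose response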;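 note: Vif residues 1-94 fused to GST binding biotinylated APOBEC3G peptide 110-148; 0% = full assay without inhibitor and 100% = GST in place of GST-Vif; retest series ran down from 100 µM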
HNF4A DNA FP = change in binding of human HNF4 alpha to DNA | P41235 | HNF4a-FITC DNA binding, fluorescence polarization, 1 h | activity change, % at 10 µM | 360,000 tested, 0.3% active; in the data active = activity change above about 30%, passing the limit was not always enough;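 note: controls were the assay level and a saturating level of protein; the project sought stronger binding though the title names inhibitors; some compounds called inactive have numbers as strong as hits; positive values seem to mean higher polarization but the record does not say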
A1 inh = inhibitors of the anti-apoptotic protein A1, read as caspase activation. caspase activation, % (no concentration beside the values). MEF A1-2A-BIM cells, Caspase-Glo 3/7 luminescence, 3 h; percent of clofoctol response, vehicle zero. 330,000 tested, 0.066% active. AID 2462;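 active = over half of replicate activation scores above 10%, or exactly half above 10 with the replicate mean above 10; inconclusive = replicate mean below 10 yet half the replicates above 10; inactive = over half of replicates below 10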;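 note: wells of about 30 µL received 50 nL stock; many hits fall short of the cut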
Ecoli growth = E. coli growth inhibition; Escherichia coli growth, OD600, 23 h; hits give low values; OD600 absorbance (no concentration beside the values); 330,000 tested, 0.21% active;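 active = OD600 absorbance below the run mean of sample wells minus 3.6 SD, in any replicate, cut at about 0.56 in these data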;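 note: stock transfer was 300 nL into about 60 µL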
Starred values were filed as active, the others as inactive; i = inactive; u = inconclusive; x = no result given; & = joins results of further samples.

structure	LANA-H2B inh	UCH37 inh	B2AR ag	Vif TR-FRET	HNF4A DNA FP	A1 inh	Ecoli growth
CC12CN3CCN(C1)CC(C)(C3)C2=NO	1.2	3.2	16	16%	3.3	0.5	0.68
CC(C)(C)C1(CCO)C(=O)NC(=S)NC1=O	x	3.6	8	-4%	2.0	x	0.71
Cn1c(O)c(C(=N)COc2ccccc2)c(=O)n(C)c1=O	4.7	4.5	-10	-7%	-0.7	0.0	0.74
O=c1[nH]c(=O)n(C2CCCCC2)c(O)c1/C=C/C=Nc1ccccc1	-9.9	11	-65	10%	121	0.7	0.71
CCC(=NCCOc1ccc(Cl)cc1)c1c(O)n(C)c(=O)n(C)c1=O	-0.1	3.7	12	19%	1.0	-0.5	0.69
Cc1ccc(N2C(=O)NC(=O)C3(Cc4ccccc4N4CCN(c5ccccc5)CC43)C2=O)cc1 (centres undefined)	15	-2.9	1	26%	-5.6	-0.1	0.72
O=C(c1ccco1)C12CN3CN(CN(C3)C1)C2	6.8	3.3	-3	11%	0.7	0.5	0.71
c1cc(CCN2CCCC2)ccn1	2.6	4.2	-7	10%	-2.1	0.2	0.72
O=C(COc1ccccc1F)N1CCN(CCN2C(=O)c3cccc4cccc(c34)C2=O)CC1	-2.1	2.0	-16	-2%	-5.3	0.6	0.69
C=Cn1ccnc1P(=S)(c1ccn(C)c1)c1nccn1C=C	-1.4	4.9	0	-2%	-0.1	0.9	0.64
CCOC(=O)N(c1ccccc1)P1(=S)OCC(C)O1 (centres undefined)	5.6	0.4	2	-1%	8.2	-0.3	0.68
COC(=O)c1ccccc1-n1c(C)nc2ccccc2c1=O	0.9	3.1	3	18%	-1.1	u	0.68
CC1Oc2cc3c(-c4c(O)cc(O)c5c(O)c6c(cc45)OC(C)C(C)C6=O)c(O)cc(O)c3c(O)c2C(=O)C1C (centres undefined)	-1.5	40*	1	x	-20	-0.6	0.74
CC(C)N1CC=C(c2c[nH]c3ccccc23)CC1	-7.1	3.3	-3	12%	3.0	-0.1	0.69
CN1CC(C(=O)c2ccc(Cl)cc2)C(c2ccc(Cl)cc2Cl)C1 (centres undefined)	-0.3	2.5	6	x	0.2	0.0	0.62
O=C(Cn1cc(C(=O)c2ccccc2F)c2ccccc21)NCc1ccco1	4.4	1.4	6	-12%	1.7	-0.1	0.66
O=c1[nH]c(=S)n(C2CCCCC2)c(O)c1/C=N/N1CCOCC1	2.1	12	3	13%	6.5	0.8	0.67
CSc1ncc(/C=C2/C(=O)NC(=O)N(C)C2=O)cn1	1.2	1.1	-5	30%	4.1	-0.6	0.73
COc1ccc(OC)c(NC(=O)N2C[C@H]3C[C@@H](C2)c2cccc(=O)n2C3)c1	1.3	6.6	2	x	3.0	0.2	0.7
COc1ccc(-c2nn(CCC#N)cc2C(=O)Nc2ccc(C(C)=O)cc2)cc1	-3.8	4.3	-15	1%	2.4	-0.6	0.67
Cc1cccc(CN2CCN(C(=O)Cc3ccccc3)CC2)c1	0.7	2.0	-6	x	2.3	u	0.69
C/C(=N\Nc1ccccc1)c1c(O)n(C)c(=O)n(C)c1=O	-1.8	1.8	-4	x	-3.6	0.9	0.72
COC(=O)C1=C(c2ccc3ccccc3c2)C[C@@H]2CC[C@H]1N2C(=O)NC1Cc2ccccc2C1	-4.7	0.9	1	x	-0.7	0.3	0.79
Cc1ccccc1-n1c(C)nc2ccsc2c1=O	-3.4	2.0	2	x	1.2	0.3	0.61
COCCOC(=O)C1=C(N)Oc2c(c(=O)oc3ccccc23)[C@@]12C(=O)Nc1ccccc12	0.4	0.7	0	5%	0.1	-0.2	0.72
CC(C)c1ccc(-n2c(O)c(/C=N/NC(=O)c3ccncc3)c(=O)[nH]c2=O)cc1	-2.2	-23	1	21%	4.5	-0.1	0.73
CN(C/N=C(\N)N[N+](=O)[O-])S(=O)(=O)c1ccccc1	-0.1	x	8	6%	-0.6	0.3	x
O=C(c1ccc2c(c1)N(Cc1ccccc1)CCS2)N1CCC2(CC1)OCCO2	2.4	-137	10	x	-0.6	-0.4	0.68
Cc1ccc(-c2cc(-c3ccccc3)cc(-c3ccccc3)[n+]2-c2ccccc2C(=O)O)cc1	2.8	-23	-6	x	2.2	-0.1	0.69
C=CCN1C(=O)NC(=O)C(Cc2ccc(OC)c(OC)c2)C1=O (centres undefined)	-6.8	7.2	3	9%	-2.9	-0.2	0.76
CC(=NCCO)c1c(O)n(C)c(=O)n(C)c1=O	4.6	5.6	-5	1%	1.0	-1.4	0.7
NC(CC(=O)O)C1CCCCC1 (centres undefined)	0.6	-0.2	x	1%	x	-0.1	x
CCOC(=O)[C@]1(C#N)[C@@H]2C=CC(C(N)=O)=CN2[C@@H](C(N)=O)[C@@H]1c1ccc(F)cc1	2.5	6.7	0	-2%	-5.1	0.6	0.65
COc1ccc(-c2cc(=NCC(=O)O)c3ccccc3o2)cc1	-3.9	i	-3	x	4.4	1.3	0.66
CC(=O)OC1(c2ccc(C)cc2)CN2CCC1c1ccccc12 (centres undefined)	1.0	4.5	5	2%&2%	4.0	-0.3	0.72
Nc1nonc1-n1nnc(C(=O)N/N=C/c2ccc(OCc3ccc(F)cc3)cc2)c1COc1ccccc1	2.2	x	11	2%	5.9	2.0	x
CC(C(=O)c1c[nH]c2ccccc12)N1CCc2ccccc2C1 (centres undefined)	-0.8	1.4	-1	2%	4.1	-1.2	0.68
OC(Cn1c2ccccc2c2ccccc21)C[n+]1cccc2ccccc21 (centres undefined)	-5.2	11	19	19%	-2.0	-1.2	0.71
CC[N+]1(C)CCCC(OC(=O)C(O)(c2ccccc2)c2ccccc2)C1 (centres undefined)	-13	-0.8	-2	31%	4.7	0.7	0.71
CC1CCCCN1Cc1c[nH]c2ccccc12 (centres undefined)	1.1	-0.9	13	1%	-3.4	1.3	0.64
COc1cc2[nH]c(=S)n(-c3ccccc3)c(=O)c2cc1OC	-0.2	3.6	-1	9%	3.9	-0.6	0.66
CCOC(=O)C1=C(N)OC2=C(C(=O)CCC2)C12C(=O)N(C)c1ccccc12 (centres undefined)	1.7	2.1	-3	17%	2.6	-0.1	0.66
Cc1ccc(-c2nn(CCC#N)cc2C(=O)O)cc1C	8.0	3.4	3	-7%	-2.3	0.1	0.71
Cc1nc2ccccc2c(=O)n1-c1ccccc1[N+](=O)[O-]	-4.9	6.9	11	x	0.7	0.4	0.7
CCC1(CC)C(=O)NC(=NCCc2c[nH]c3ccccc23)NC1=O	-0.4	1.6	11	-3%	1.8	0.8	0.69
CCC1(CC)C(=O)NC(=O)N(CCc2ccccn2)C1=O	x	1.3	-13	-4%	-5.2	x	0.71
C[C@]12CC[C@@H](O)CC1=CCC1C2CC[C@@]2(C)C1C[C@@H](F)[C@H]2O (some centres undefined)	x	0.9	-1	0%	5.6	x	0.7
CNS(=O)(=O)c1ccc(N=Cc2c(O)n(-c3ccccc3)c(=O)[nH]c2=O)cc1	-1.3	4.3	5	x	-0.3	0.1	0.71
COc1ccc(CC(=O)Nc2ccc3c(C(F)(F)F)cc(=O)oc3c2)cc1OC	-2.9	-2.0	-5	u	4.0	-0.3	0.67
O=C1NC(=O)N(Cc2ccc(F)cc2)C(=O)/C1=C\c1ccc([N+](=O)[O-])s1	0.3	x	-44	u	-9.2	-0.2	x
CN(C)C(=O)Oc1ccnc2cc(Cl)ccc12	0.3	4.2	2	-3%	0.2	-0.2	0.69
C[C@]12CC[C@H](O)C[C@H]1CC[C@@H]1[C@@H]2CC[C@]2(C)[C@@H](C3=CC(=O)OC3)CC[C@]12O	-0.7	0.4	-5	x	-0.3	u	x
Clc1cccc(CNCCc2c[nH]c3ccccc23)c1	3.7	0.7	25	1%	-2.4	-1.5	0.6
CCC(=NCc1ccco1)c1c(O)[nH]c(=O)[nH]c1=O	2.5	2.2	-1	1%	1.7	0.0	0.69
C[C@]12CCC3C(CC[C@H]4C[C@@H](O)CC[C@]34C)C1CC[C@@]2(O)C(F)(F)F (some centres undefined)	-1.3	x	x	x	3.2	0.7	x
N#Cc1ccccc1NC(=O)CN1CC=C(c2ccccc2)CC1	-3.4	1.4	-3	-10%	2.8	0.9	0.73

More records
structure	LANA-H2B inh	UCH37 inh	B2AR ag	Vif TR-FRET	HNF4A DNA FP	A1 inh	Ecoli growth
Cc1ccc(C2CN(C)CC2C(=O)c2ccc(F)cc2)cc1 (centres undefined)	-0.3	3.0	7	-12%	-5.0	0.4	0.6
CCC(C)N1Cc2ccccc2C1=N (centres undefined)	-0.9	1.8	18	-5%	4.0	0.5	0.61
CN(C)P(=O)(C(Cl)=C(N1CCCCC1)N1CCCCC1)N(C)C	1.7	1.4	11	28%	0.3	0.4	0.67
C[C@]12N[C@H](Cc3ccccc31)c1ccccc12	4.7	1.0	-10&-1	x	-1.0&2.6	-0.1	x
Cn1c(O)c(/C=N/N2CCOCC2)c(=O)n(C)c1=S	-7.3	10	10	14%	-1.2	0.0	0.7
O=C(COc1ccccc1)N1CCN(C2CCCC2)CC1	-1.5	0.6	-2	3%	40*	0.1	0.71
Fc1ccc(CNC2CN3CCC2CC3)cc1 (centres undefined)	-1.2	2.7	-6	6%	1.9	0.0	0.69
CNC(=S)N(Cc1cc2cc(OC)c(OC)cc2[nH]c1=O)C1CCCC1	5.2	-91	1	-1%	3.5	0.6	0.74

Rewritten with two lines to a compound: two of the compounds above
Each structure is followed by: LANA-H2B inh	UCH37 inh	B2AR ag	Vif TR-FRET	HNF4A DNA FP	A1 inh	Ecoli growth
- Cn1c(O)c(/C=N/N2CCOCC2)c(=O)n(C)c1=S
 : -7.3	10	10	14%	-1.2	0.0	0.7
- O=C(COc1ccccc1)N1CCN(C2CCCC2)CC1
 : -1.5	0.6	-2	3%	40*	0.1	0.71

(more compounds)
structure	LANA-H2B inh	UCH37 inh	B2AR ag	Vif TR-FRET	HNF4A DNA FP	A1 inh	Ecoli growth
O=C1/C(=C\c2ccc(Cl)c(Cl)c2)N2CCC1CC2	1.7	x	-4	x	3.0	-0.1	x
CC(=O)Nc1nnc(CCN(CCc2nnc(NC(C)=O)s2)[N+](=O)[O-])s1	0.0	3.1	-1	x	4.4	-0.1	0.66
FC(F)(F)Oc1ccc(C2NCc3ccccc3-n3cccc32)cc1 (centres undefined)	-3.1	6.1	-1	0%	2.2	-2.4	0.62
N/C(=N\[N+](=O)[O-])N1CCN(C(=O)OC2CCCC2)CC1	2.1	x	-3	-4%	0.8	1.1	x
CC(=O)OC1N=C(c2ccccc2)c2cc(Br)ccc2N(C)C1=O (centres undefined)	-3.3	x	-12	-4%	1.6	-0.4	x
COC(=O)C1=C(c2ccc(OC(F)(F)F)cc2)C[C@@H]2CC[C@H]1N2C(=O)N1CCOCC1	-8.0	0.6	3	x	2.0	0.2	x
COC(=O)C1=C(c2ccc3ccccc3c2)C[C@@H]2CC[C@H]1N2C(=O)NCc1ccco1	3.4	2.0	12	x	-3.7	1.4	x
COC(=O)C(C)NC(=S)N1CC2C[C@@H](C1)Cn1c2cccc1=O (some centres undefined)	-1.7	1.0	-2	x	2.6	1.4	0.66
CCCOc1ccccc1C1SCC(=O)Nc2c1c(=O)[nH]n2C(C)CCC (centres undefined)	-0.6	-1.7	-2	-5%	2.4	-0.6	0.75
COc1ccc(CNCCc2c[nH]c3ccccc23)c(OC)c1C	-0.1	2.3	21	5%	1.8	-0.4	0.58

Some of the compounds tested; the hit share may differ from the screen's.
